Source: PubChem BioAssay (Johns Hopkins Ion Channel Center)
KCNQ2 enhance: KCNQ2 (rat) channel potentiation; O88943; CHO-K1 KCNQ2, FluxOR thallium flux fluorescence; stronger effect = higher value; B-score at 10 µM; hit rate 0.54% among 310,000; AID 2239;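 active = fluorescence ratio B-score at least 3 SD of library B-scores, with initial fluorescence B-score within 3 SD, cut at about 5.3 in these data; same plate scores as AID 2156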;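 note: B-score of peak minus minimum over baseline fluorescence ratio after K+ and Tl+ stimulus; positive B-score means potentiation of KCNQ2 with more thallium influx and brighter signal; only the inactives scoring about 0 or higher are listed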
Target sequence (O88943 whole entry, looked up): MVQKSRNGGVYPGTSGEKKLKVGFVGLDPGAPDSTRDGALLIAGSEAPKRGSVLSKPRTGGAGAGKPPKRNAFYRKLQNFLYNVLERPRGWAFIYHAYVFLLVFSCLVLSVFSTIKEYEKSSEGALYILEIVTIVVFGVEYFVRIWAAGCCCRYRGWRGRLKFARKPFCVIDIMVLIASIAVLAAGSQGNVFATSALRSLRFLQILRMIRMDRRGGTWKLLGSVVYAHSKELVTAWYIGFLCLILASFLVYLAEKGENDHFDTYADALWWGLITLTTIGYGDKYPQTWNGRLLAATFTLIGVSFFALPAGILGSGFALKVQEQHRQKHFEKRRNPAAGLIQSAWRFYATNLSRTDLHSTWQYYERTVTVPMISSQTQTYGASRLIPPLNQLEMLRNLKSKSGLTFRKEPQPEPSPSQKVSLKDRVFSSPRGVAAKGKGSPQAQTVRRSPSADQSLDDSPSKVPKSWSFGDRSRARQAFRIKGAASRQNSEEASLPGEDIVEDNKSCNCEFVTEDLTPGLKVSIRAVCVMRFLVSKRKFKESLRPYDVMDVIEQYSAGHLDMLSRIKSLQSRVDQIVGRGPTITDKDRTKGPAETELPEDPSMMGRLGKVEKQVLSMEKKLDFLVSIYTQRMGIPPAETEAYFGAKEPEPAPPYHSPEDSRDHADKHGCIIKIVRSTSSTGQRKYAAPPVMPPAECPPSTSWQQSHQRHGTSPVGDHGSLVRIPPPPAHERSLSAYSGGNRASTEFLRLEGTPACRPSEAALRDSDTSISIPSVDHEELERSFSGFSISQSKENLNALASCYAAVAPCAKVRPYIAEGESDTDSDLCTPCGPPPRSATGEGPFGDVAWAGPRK
KCNQ2 enhance baseline: recorded beside KCNQ2 enhance, whose call it bears; B-score; compound at 10 µM; measured here: initial fluorescence intensity artifact check;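 brightness before thallium and not channel activity; 0 = typical well and far values either way flag optical interference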
Active calls of the source: *.

SMILES	KCNQ2 enhance	KCNQ2 enhance baseline
COC1CC(OC2CCC3(C)C(CCC4C3CCC3(C)C(C5=CC(=O)OC5)C(OC(C)=O)CC43O)C2)OC(C)C1OC1OC(COC2OC(CO)C(O)C(O)C2O)C(O)C(O)C1O (stereo not drawn)	1.1	-2.3
CCC(C(=O)Nc1ccc(Cl)cc1)N1CCCC1=O (stereo not drawn)	0.12	-0.36
COc1ccc(C(CNC(=O)Cc2ccc(Cl)c(Cl)c2)N2CCCCC2)cc1 (stereo not drawn)	2.9	-0.13
C=Cc1ccc(Cn2c(C(=O)O)c(C=O)c3ccccc32)cc1	1.1	-0.2
CCN1CCN(C(=O)Cc2ccc(C)cc2)CC1	0.22	0.15
O=C(NCc1ccc(C(=O)N2CCC3(CC2)OCCO3)cc1)c1cccc(Br)c1	0.04	0.59
CCOP(=O)(OCC)C(NC(=O)CC(C)C)C(Cl)(Cl)Cl (stereo not drawn)	0.25	-0.19
O=C1CN(O)C(c2ccccc2Cl)=c2cc(Br)ccc2=N1	1.3	0.52
CC(=NCCCn1ccnc1)c1c(O)n(-c2ccccc2)c(=O)[nH]c1=O	0.98	1.4
CSC(=Nc1ccccc1)c1c(O)n(C)c(=O)n(C)c1=O	0.14	1.1
Nc1c(C(=O)NCc2ccco2)c2nc3ccccc3nc2n1CCN1CCOCC1	1.3	-1.8
Cc1cc(C=C2C(=O)NC(=O)NC2=O)c(C)n1-c1ccc2c(c1)OCO2	0.09	-1.9
CCCCNC(=O)NC(C(N)=O)P(=O)(OCC)OCC (stereo not drawn)	0.15	-1.1
C/C(=N\Nc1ccccc1)c1c(O)n(C)c(=O)n(C)c1=O	1.3	-0.64
CC(=NCCN1CCOCC1)c1c(O)n(Cc2ccccc2)c(=O)[nH]c1=O	0.29	-0.34
CCn1cc(CN2CCCC(C(=O)c3sccc3C)C2)cn1 (stereo not drawn)	1.5	-0.29
Cc1cc(C=C2C(=O)N(C)C(=S)N(C)C2=O)c(C)n1-c1cccnc1	1.6	1.2
COc1cc(N2CCOCC2)ccc1/C=C1\C(=O)NC(=O)N(C2CCCCC2)C1=O	0.07	2.5
Cc1c(C=O)c2ccccc2n1Cc1ccccc1	1.4	-0.86
CCOc1ccccc1C1SCC(=O)Nc2c1c(=O)[nH]n2C(CC)CC (stereo not drawn)	0.02	1.2
Cn1c(O)c(/C=N/NC(=O)c2ccncc2)c(=O)[nH]c1=S	0.17	-2
CC(=O)c1cccc(NC(=O)N2C[C@H]3C[C@@H](C2)c2cccc(=O)n2C3)c1	0.32	0.45
COc1ccc(C2NCCc3[nH]cnc32)cc1 (stereo not drawn)	1.2	0.11
CN1CCC(=O)N(CCN=[N+]=[N-])CC1	0.18	0.02
CC12CCC3C(CCC4C/C(=N/O)CCC43C)C1CCC2O (stereo not drawn)	1.8	0.14
CN(Cc1c[nH]c2ccccc12)C1CCCCC1	0.01	-1.6
Cc1cc(NC(=O)COC(=O)c2c(C)nn(Cc3ccccc3)c2C)no1	0.93	-0.28
Cc1ccc2c(c1)N(CCC(=O)N1CCC3(CC1)OCCO3)C(=O)CO2	1.4	-1.8
O=C(Nc1nc(-c2ccccc2)c(-c2ccccc2)s1)c1ccc(S(=O)(=O)N(CCCl)CCCl)cc1	1.8	-1.1
COC(=O)C1=C(c2cccc(OC)c2OC)C[C@@H]2CC[C@H]1N2C(=O)NCCS(C)=O (stereo partly drawn)	0.89	0.48
O=S(=O)(c1ccc(Cl)cc1)N1CC1c1ccccc1 (stereo not drawn)	0.39	0.09
O=C(c1cc(S(=O)(=O)N2CCOCC2)ccc1F)N1CCC2(CC1)OCCO2	0.81	-0.12
Cc1oc(-c2ccccc2F)nc1CS(=O)CC(=O)N1CCC2(CC1)OCCO2 (stereo not drawn)	0.81	-0.63
NS(=O)(=O)c1ccc(N=Nc2c(O)[nH]c(=S)[nH]c2=O)cc1	2.3	0.93
Cc1cccc(N2C(=O)NC(=O)/C(=C\c3cccn3-c3ccc(Cl)cc3)C2=O)c1	0.03	0.66
CC1CCCCN1C(=O)c1ccc(N2CC3CC(C2)c2cccc(=O)n2C3)c([N+](=O)[O-])c1 (stereo not drawn)	0.05	0
Cc1cc([N+](=O)[O-])c(Cl)cc1NC(=O)C(C)C	0.97	-1.8
CCN1C[C@@]2(COC)C3[C@@H](OC)[C@H]4[C@@H]1[C@@]3(C1C[C@H]3[C@H](OC(=O)c5ccccc5)C1[C@]4(OC(C)=O)C[C@H]3OC)[C@@H](OC)C[C@H]2O (stereo partly drawn)	0.67	-0.03
CC(C)NC(C)C(=O)C12CC3CC(CC(C3)C1)C2 (stereo not drawn)	0.22	-0.4
Cn1c(O)c(C(=O)c2ccccc2Cl)c(=O)n(C)c1=O	0.45	3
COc1ccc(OC)c(CC(=O)N(C)C2CCCN(Cc3ccccc3F)C2)c1 (stereo not drawn)	0.1	-2.3
NC(Cc1ccccc1)Cc1ccccc1	1.8	-0.73
Cc1c(C)c2ccc(OCC(=O)N3C[C@H]4C[C@@H](C3)c3cccc(=O)n3C4)c(C)c2oc1=O	0.93	-0.02
O=c1[nH]c(CN2CC=C(c3ccccc3)CC2)nc2cc(C(F)(F)F)ccc12	0.59	1
CN1C(=O)C(C2c3ccccc3C(=O)N2Cc2ccccc2)C(=O)N(C)C1=O (stereo not drawn)	0.04	1.6
CN=C(SCc1cc2c(cc1Cl)OCO2)c1c(O)n(C)c(=O)n(C)c1=O	2	0.68
O=C(c1ccco1)C12CN3CN(CN(C3)C1)C2	0.85	0.05
Cn1c(O)c(C=Nc2ccccc2)c(=O)n(C)c1=O	0.59	-1.6
O=C(CN1C(=O)CN=C(c2ccccc2)c2ccccc21)NCc1ccco1	1.2	-0.1
CN1CCN(C(=O)COc2ccc(S(=O)(=O)NCc3ccccc3)cc2Cl)CC1	0.22	2.7

Some of the entries so far, with values under each structure:
Order of results – KCNQ2 enhance, KCNQ2 enhance baseline
COC(=O)C1=C(c2cccc(OC)c2OC)C[C@@H]2CC[C@H]1N2C(=O)NCCS(C)=O (stereo partly drawn)
  0.89, 0.48
O=S(=O)(c1ccc(Cl)cc1)N1CC1c1ccccc1 (stereo not drawn)
  0.39, 0.09
O=C(c1cc(S(=O)(=O)N2CCOCC2)ccc1F)N1CCC2(CC1)OCCO2
  0.81, -0.12
Cc1oc(-c2ccccc2F)nc1CS(=O)CC(=O)N1CCC2(CC1)OCCO2 (stereo not drawn)
  0.81, -0.63
NS(=O)(=O)c1ccc(N=Nc2c(O)[nH]c(=S)[nH]c2=O)cc1
  2.3, 0.93
Cc1cccc(N2C(=O)NC(=O)/C(=C\c3cccn3-c3ccc(Cl)cc3)C2=O)c1
  0.03, 0.66
CC1CCCCN1C(=O)c1ccc(N2CC3CC(C2)c2cccc(=O)n2C3)c([N+](=O)[O-])c1 (stereo not drawn)
  0.05, 0
Cc1cc([N+](=O)[O-])c(Cl)cc1NC(=O)C(C)C
  0.97, -1.8
CCN1C[C@@]2(COC)C3[C@@H](OC)[C@H]4[C@@H]1[C@@]3(C1C[C@H]3[C@H](OC(=O)c5ccccc5)C1[C@]4(OC(C)=O)C[C@H]3OC)[C@@H](OC)C[C@H]2O (stereo partly drawn)
  0.67, -0.03
CC(C)NC(C)C(=O)C12CC3CC(CC(C3)C1)C2 (stereo not drawn)
  0.22, -0.4
Cn1c(O)c(C(=O)c2ccccc2Cl)c(=O)n(C)c1=O
  0.45, 3
COc1ccc(OC)c(CC(=O)N(C)C2CCCN(Cc3ccccc3F)C2)c1 (stereo not drawn)
  0.1, -2.3
NC(Cc1ccccc1)Cc1ccccc1
  1.8, -0.73
Cc1c(C)c2ccc(OCC(=O)N3C[C@H]4C[C@@H](C3)c3cccc(=O)n3C4)c(C)c2oc1=O
  0.93, -0.02
O=c1[nH]c(CN2CC=C(c3ccccc3)CC2)nc2cc(C(F)(F)F)ccc12
  0.59, 1
CN1C(=O)C(C2c3ccccc3C(=O)N2Cc2ccccc2)C(=O)N(C)C1=O (stereo not drawn)
  0.04, 1.6
CN=C(SCc1cc2c(cc1Cl)OCO2)c1c(O)n(C)c(=O)n(C)c1=O
  2, 0.68
O=C(c1ccco1)C12CN3CN(CN(C3)C1)C2
  0.85, 0.05
Cn1c(O)c(C=Nc2ccccc2)c(=O)n(C)c1=O
  0.59, -1.6
O=C(CN1C(=O)CN=C(c2ccccc2)c2ccccc21)NCc1ccco1
  1.2, -0.1
CN1CCN(C(=O)COc2ccc(S(=O)(=O)NCc3ccccc3)cc2Cl)CC1
  0.22, 2.7

Going on with the list:
SMILES	KCNQ2 enhance	KCNQ2 enhance baseline
C[C@]12CCC(=O)C(O)=C1CC[C@@H]1[C@@H]2CC[C@]2(C)C(=O)CC[C@@H]12	0.07	-1.1
NC(Cc1ccccc1)c1nc2ccccc2[nH]1 (stereo not drawn)	0.98	0
O=C(CCc1nnc2ccc(NCc3ccc(F)cc3)nn12)N1CCC2(CC1)OCCO2	0.99	-0.02
CCCCn1c(O)c(C(C)=NCCCN(CC)CC)c(=O)[nH]c1=O	1.4	-0.41
CCCCN1C(=O)/C(=C/c2ccc(N3CCCCCC3)cc2)C(=O)NC1=S	0.11	0.25
O=C(O)c1cccc2c1NC(c1cccc([N+](=O)[O-])c1)C1CC(Sc3ccccc3[N+](=O)[O-])C(Cl)C21 (stereo not drawn)	3	-1.3
COC(=O)CC1(CC(=O)OC)C(=O)N(c2ccccc2)C(=O)N(c2ccccc2)C1=O	1.3	0.19
Cc1ccc(-c2cc(C(F)F)n3ncc(C(=O)N4CCC5(CC4)OCCO5)c3n2)cc1	0.38	0.09
Cc1cc2oc(=O)cc(-c3cc4ccccc4o3)c2cc1OC(=O)N(C)C	0.66	1.6
CC1(C)N(O)C2CCCCC2N1O (stereo not drawn)	1.6	-1.9
COc1ccccc1CCNC1CCC(C)CC1 (stereo not drawn)	1.9	-1.1
[O-][n+]1onc2c1CCC1N(O)CCC21O (stereo not drawn)	0.62	-0.55
Cc1ccccc1N1C(=O)NC(=O)/C(=C\c2cnn(-c3ccccc3)c2)C1=O	0.04	1.3
CCCN(CCC)[C@@H]1CCc2cccc(O)c2C1	1.1	-0.7
O=C(c1ccc(F)cc1)C(Cc1ccccc1)N1CCCCC1 (stereo not drawn)	0.07	-2
Cc1ccc(-n2c(/C=C/c3ccccn3)nc3ccccc3c2=O)cc1	0.93	1.6
COc1cc(C[C@@H](C)N)c(OC)cc1I	2.2	0.79
O=C(CNC(=O)OCc1ccccc1)Nc1ccc(Br)cc1C(=O)c1ccccc1Cl	0.09	-0.03
COc1ccc2[nH]cc(CCN=C(N)N)c2c1	0.69	0.49
C=CCn1c(O)c(C(C)=NCCCO)c(=O)[nH]c1=O	0.83	0.61
Fc1ccc(C(OCCN2CCCC2)c2ccc(F)cc2)cc1	2.5	-0.27
O=C(CNC(=O)c1ccccc1)Nc1ccc(Br)cc1C(=O)c1ccccc1	1.6	-0.53
O=c1c(/C=N/N2CCOCC2)c(O)n(-c2ccccc2)c(=S)n1-c1ccccc1	0.42	0.89
NP(=O)(OCC(F)(F)F)Oc1ccc(Cl)cc1 (stereo not drawn)	1.6	0.02
CCN1CCN(c2ncnc3ccc(Br)cc23)CC1	1.2	0.14
Cc1nn(Cc2ccccc2)c(Cl)c1C(=O)O	0.94	-0.93
N#CC(C#N)=C(N)c1cccnc1	1.9	-0.63
O=C(Cc1ccccc1)OCCN1CCCCC1	1.3	0.07
COc1cc2c(cc1OC)-c1c(OC)c(OC)cc3c1C(C2)N(C)CC3 (stereo not drawn)	0.02	1
CC1(c2ccccc2)NCCN2C(=O)CSC21 (stereo not drawn)	0.75	-0.64
CNC(=O)Nc1ccc(C(O)(C(=O)OC)C(F)(F)F)cc1 (stereo not drawn)	0.1	-0.88
CC(=NCCO)c1c(O)n(C2CCCCC2)c(=O)[nH]c1=O	1.4	-0.21
CN1CCN(c2ccc(S(=O)(=O)C(F)(F)F)cc2[N+](=O)[O-])CC1	1.2	-0.02
CC(=NCCO)c1c(O)n(C)c(=O)n(C)c1=O	0.01	-0.2
O=C1CN=C(c2ccccc2)c2oc3ccc(Br)cc3c2N1	0.78	0.63
Cc1cccc(NC(N)=S)c1	0.01	-1.8
CC(=O)N1N=C2C3CCN(CC3)C2C1c1cccc2ccccc12 (stereo not drawn)	1.1	0.27
COc1cccc(CNC(=O)CCC(=O)N2C[C@H]3C[C@H](C2)c2cccc(=O)n2C3)c1OC	1.1	1.6
CCOc1ccc(NC(=O)CCNC(=O)N2C[C@H]3C[C@@H](C2)c2cccc(=O)n2C3)cc1	1	0.03
CCCCOC(=O)C1=C(N)OC2=C(C(=O)CCC2)[C@]12C(=O)N(C)c1ccccc12	0.02	-0.1
C[C@]12CCC(=O)C=C1CC[C@@H]1[C@@H]2CC[C@]2(C)C(=O)CC[C@@H]12	1.1	0.85
COc1ccc(CCNCc2ccsc2)cc1OC	1.1	-1.6
NC(=O)C1(N2CCCCC2)CCN(Cc2ccccc2)CC1	0.64	0.04
Cn1c(O)c(C=Nc2ccc(F)cc2)c(=O)[nH]c1=O	0.21	1.9
COc1ccc(OCC#CCN2CCCCCC2)cc1	1.8	0.07
COc1ccccc1Cn1c(SCC(=O)C(C)(C)C)nc2cc(C(=O)N3CCC4(CC3)OCCO4)ccc2c1=O	0.18	-1.9

An excerpt, so the mix of outcomes need not match the whole.
